Screens deposited in PubChem by ICCB-Longwood Screening Facility, Harvard Medical School.
HCMV NEC inh: inhibitors of HCMV UL50-UL53 nuclear egress complex interaction | AID 1918969 | HTRF UL50-UL53 interaction, normalized percent inhibition | inhibition, % (test concentration not listed) | 190,000 tested, 0.15% active;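 active means both replicates at 50% or more, plus weaker picks with an unusually low signal ratio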;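 further: stock transfer was 100 nL into about 20 µL; 0% = negative control wells and 100% = wells with untagged competitor protein; inactives centre near -12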
Sa growth 42C: blocks Staphylococcus aureus growth; 170,000 tested, 0.53% active; relative growth, % (test concentration not listed); AID 720641; S. aureus RN4220 growth, OD600, 20 h, 42 °C; active compounds read low;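 active means growth at 42 °C up to 50% and 20 or more points under that at 30 °C, or under 10% at both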;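 further: 300 nL library stock went into each well; scaled to the means of positive and negative controls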
GIV Gai3 FP: blocks GIV peptide binding to rat Galpha-i3; P08753; Galpha-i3/FITC-GIV peptide fluorescence polarization, 90 min; active compounds read low; scaled: aluminum fluoride 0%, vehicle 100%; percent of control (FP), % (no concentration beside the values); 210,000 tested, 0.42% active; AID 1224905;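 active means replicate mean at 85% of control or lower, very high polarization wells dropped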;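 further: wells of about 15 µL received 100 nL stock; the first replicate is given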
Target sequence (P08753 whole entry, looked up): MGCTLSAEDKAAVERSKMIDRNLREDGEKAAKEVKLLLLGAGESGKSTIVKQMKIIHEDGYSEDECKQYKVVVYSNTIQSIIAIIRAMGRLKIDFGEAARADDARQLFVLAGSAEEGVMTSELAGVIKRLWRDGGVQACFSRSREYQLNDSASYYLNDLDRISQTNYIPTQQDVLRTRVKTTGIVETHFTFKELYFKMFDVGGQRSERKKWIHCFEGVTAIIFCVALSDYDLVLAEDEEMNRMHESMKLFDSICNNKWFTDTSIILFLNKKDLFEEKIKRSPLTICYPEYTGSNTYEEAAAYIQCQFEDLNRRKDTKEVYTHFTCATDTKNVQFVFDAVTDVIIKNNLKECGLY
Sa growth 42C second temp: recorded beside Sa growth 42C, whose call it bears; relative growth, %; measured here: growth at 30 °C;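 optical density after 20 h as mean of two plates; 100% = untreated growth and lower means inhibition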
Numbers without * were called inactive; . = not tested or not shown; & = joins results of further samples.

Structure,HCMV NEC inh,Sa growth 42C,Sa growth 42C second temp,GIV Gai3 FP
COc1ccc(C2c3c(n(C)c4ccccc34)C(=O)N2CC(=O)Nc2cc(Cl)ccc2C)cc1 (stereo not given),.,82,80,104
COc1ccc(S(=O)(=O)N2Cc3ccccc3CC2C(=O)Nc2ccc(C)cc2)cc1OC (stereo not given),.,122,97,97
Cc1ccc(-c2nnc(-c3cc(C)on3)o2)cc1,0,110,101,108
CCC1(CC)N([O-])C(C)=C(c2ccccc2)[N+]1=O,-8,88,91,.
Oc1cccc(C=Nc2ccccc2N2CCOCC2)c1,-12,94,96,.
CCOC(=O)c1cc(-c2ccccc2)sc1NC(=O)CSc1nccn1C,34,100,76,97
CCCCn1c(SCCC)nc2sc3c(c2c1=O)CCC3,-2,.,.,99
CC1CCCCN1S(=O)(=O)c1cc(-c2ccc(=O)[nH]n2)ccc1Cl (stereo not given),-23,.,.,100
Cn1ccnc1SCC(=O)c1ccc(Cl)cc1,-14,113,82,100
Cc1cc(C)c2c(=O)n(CC(=O)Nc3ccc(F)cc3C)sc2n1,3,104,98,113
Nc1scc[n+]1CC(=O)c1ccc(Cl)c(Cl)c1,-23,123,84,.
Cn1c(/C=C(\C#N)C(N)=S)ccc1-c1ccc(Br)cc1,-2,117,96,111
O=C(CSc1nnnn1Cc1ccccc1)Nc1ccccc1,8,93,95,98
CC1CN(c2nnc(-c3cccs3)c3ccccc23)CC(C)O1 (stereo not given),-47,98,91,.
COc1cc(OC)cc(C(=O)Nc2ccc(S(=O)(=O)Nc3ncccn3)cc2)c1,17,102,96,98
Cc1csc2nc(COc3ccccc3NC(=O)C(C)(C)C)cc(=O)n12,-14,.,.,105
CCOc1ccccc1NC(=O)CN1C(=O)COc2ccc(S(=O)(=O)N3CCCCCC3)cc21,.,97,87,101
CC(C)(C)N(Cc1ccccc1)C(=O)c1cccs1,7,92,102,.
c1ccc(OCc2nn3c(-c4ccccc4)nnc3s2)cc1,.,108,92,101
COc1cc(Cl)c(C)cc1NC(=O)CNC(=O)C1CCCCC1,-15,99,87,.
COc1ccc(-c2noc(-c3cccc(OC)c3OC)n2)cc1,2,101,87,99
Cc1ccc(C(=O)c2cc(O)c(O)c([N+](=O)[O-])c2)cc1,-122&-161,56,28,106
Cc1ccc(C)c(S(=O)(=O)N(C)Cc2cccs2)c1,-16,129,96,.
O=C(NNc1nc2c(F)cccc2s1)C1=COCCO1,-19,84,106,100
CCOc1ccc(NC(=O)c2oc3ccccc3c2NC(=O)COC)cc1,2,98,88,99
Cc1noc(-c2c(C)sc(C)c2S(=O)(=O)Nc2ccc(S(N)(=O)=O)cc2)c1C,-8,.,.,108
O=C1c2ccccc2C(=O)N1CCCN1CCN(Cc2c(F)cccc2Cl)CC1,-7,102,90,106
COC(=O)c1ccc(-c2ccco2)n1Cc1nc(-c2ccccc2F)oc1C,.,87,92,102
O=S(=O)(Nc1ccccc1NC1CCN(Cc2ccccc2)CC1)c1ccc(F)cc1,-21,111,85,104
COc1ccccc1N(Cc1nc2nc(C)cc(=O)n2[nH]1)C(=O)C(C)C,-22,.,.,103
O=C(Sc1nc2ccccc2o1)c1ccccc1,-6,102,96,103
CNC(=O)NC(=O)c1cnccc1C(F)(F)F,-34,99,90,106
Oc1ccc2ncccc2c1C(Nc1ccccn1)c1ccco1 (stereo not given),-4,44,43,79*
Clc1ccc(/C=N\N2CCN(c3ccccc3)CC2)cc1,10,100,94,111
Cc1ccc(-n2c(=O)c3c4c(sc3n(Cc3cc(=O)n5ccccc5n3)c2=O)CCC4)cc1C,-15,99,108,108
COc1ccc(C2C(C(=O)Nc3ccc4c(c3)OCCO4)c3ccccc3C(=O)N2C)cc1 (stereo not given),6,96,92,105
CCOc1ccc(NC(=O)CN(C)Cc2cc(=O)n3c(-c4ccccc4)csc3n2)cc1OCC,0,89,79,.
CCOC(=O)Cn1ccc2nc(SC)ncc2c1=O,-23,94,87,117
COCc1cc(C)nc(SCC(=O)NC2CCCCC2C)c1C#N (stereo not given),-17,114,89,106
CCOC(=O)CC(NC(=O)c1cc2c(=O)n3cccc(C)c3nc2s1)c1ccc(OCC(C)C)c(OC)c1 (stereo not given),-2,94,90,104
CCCCOC(=O)c1ccc(NC(=O)CC2NCCNC2=O)cc1 (stereo not given),-18,92,87,111
N#Cc1ccc(N2CCOCC2)cc1C#N,-32,92,77,100
CCN(Cc1ccncc1)C(=O)CSc1ccc2ccccc2c1,-18,134,92,.
Cc1cc(-c2nc3ccccc3s2)ccc1NC(=O)c1cc(Cl)ccc1Cl,1,107,92,107
CCc1nnc(SCC(=O)Nc2cc(Cl)c(OC)cc2OC)c2cc3oc(C)cc3n12,.,115,80,102
Cc1cc(C)c(S(=O)(=O)NC(C)C2C3CC4CC(C3)CC2C4)c(C)c1 (stereo not given),.,117,106,103
CCOc1ccc(N(CC(=O)N2CCN(c3ccccc3OC)CC2)S(=O)(=O)c2ccc(Cl)cc2)cc1,-15&-9,.,.,102&92
Fc1ccc(NCc2ccccc2-c2nnc(-c3ccccc3Cl)o2)cc1Cl,-10,113,97,102
Cc1c(C(=O)O)oc2ccc(S(=O)(=O)N(CC(C)C)CC(C)C)cc12,.,101,83,103
COc1ccc(-c2cc(C)no2)cc1S(=O)(=O)N1CCCC(C)C1 (stereo not given),.,87,90,101
Cc1ccccc1C(=O)OCc1cc(=O)n2c(C)csc2n1,.,83,86,106
CC(C)CC(=O)N=Nc1c(O)[nH]c2ccc(Br)cc12,-30,106,99,94
CCCc1nnc(NC(=O)Cc2coc3cc(C)cc(C)c23)s1,-12,114,86,105
CCOc1ccc(NC(=O)CSc2nnc(-c3ccncc3)n2-c2ccccc2)cc1,.,105,100,106
Cc1nc(-c2ccc(-n3cc(C(=O)Nc4ccc(Cl)cc4)c(C)n3)cc2)no1,-17,.,.,102
O=C(NCc1cccnc1)c1nn2c(C(F)(F)F)cc(-c3ccccc3)nc2c1Br,-55,.,.,100

(cont.)
Structure,HCMV NEC inh,Sa growth 42C,Sa growth 42C second temp,GIV Gai3 FP
OC(COc1ccccc1)COc1ccccc1,8,100,94,97
C=CCc1cc(/C=C2\C(=O)NC(=S)N(c3ccc(OCC)cc3)C2=O)cc(OCC)c1O,-32,.,.,129
O=C(Nc1cccc(F)c1)C(Cc1ccccc1)n1cccc1 (stereo not given),.,96,59,107
CCc1noc2nc(CCC(=O)O)nc(N3CCCCC3)c12,-33,.,.,96
CC(C)Oc1ccc(C(=O)NCC(c2ccc(N(C)C)cc2)N(C)C)cc1 (stereo not given),-10,.,.,102
CC(=O)Nc1ccc(OCC(O)CN2CCN(c3ccc(C)c(Cl)c3)CC2)cc1 (stereo not given),5,92,74,103
CCOC(=O)Nc1ccc2c(c1)N(C(=O)CN(C)C)c1ccccc1S2,-26,98,78,101
COC(=O)C(C(=O)OC)c1ccc(C#N)c(C#N)c1,-1,112,83,.

Brought forward from above: 5 entries; new compounds follow.
Structure,HCMV NEC inh,Sa growth 42C,Sa growth 42C second temp,GIV Gai3 FP
CCc1noc2nc(CCC(=O)O)nc(N3CCCCC3)c12,-33,.,.,96
CC(C)Oc1ccc(C(=O)NCC(c2ccc(N(C)C)cc2)N(C)C)cc1 (stereo not given),-10,.,.,102
CC(=O)Nc1ccc(OCC(O)CN2CCN(c3ccc(C)c(Cl)c3)CC2)cc1 (stereo not given),5,92,74,103
CCOC(=O)Nc1ccc2c(c1)N(C(=O)CN(C)C)c1ccccc1S2,-26,98,78,101
COC(=O)C(C(=O)OC)c1ccc(C#N)c(C#N)c1,-1,112,83,.
CC1=Nc2cc(C(=O)NC3CCC(C)CC3)ccc2Sc2c(C)ccc(C)c21 (stereo not given),-26,109,81,102
CCOC(=O)N1CCC(NC(=O)c2cc(C(=O)NCc3cccc(Cl)c3)ccc2CO)CC1,-2,113,95,107
Cc1oc2ccc(O)c(CN3CCOCC3)c2c1C(=O)Nc1cccc(C(F)(F)F)c1,-2,119,84,99
O=C(Cn1cc(SCc2ccc(Cl)cc2)c2ccccc21)N1CCCC1,.,103,103,108
S=C(NCCN1CCOCC1)c1ccc(Cl)cc1,5,107,102,104
Cc1ccc(NC(=O)Cn2c(=O)n(CCCCC(=O)NCc3ccccc3Cl)c(=O)c3ccccc32)cc1,-20,107,91,105
COc1ccc(C2=C(C)C(N3CCC(C(=O)NCc4ccc(C)o4)CC3)=NS2(=O)=O)cc1,.,129,63,108
CC(=O)NC(Cc1c[nH]c2ccccc12)C(=O)N1CCN(c2cccc(C(F)(F)F)c2)CC1 (stereo not given),-22,112,88,.
COc1ccccc1NC(=O)CSc1nc2c(oc3ccccc32)c(=O)n1Cc1ccc(F)cc1,.,93,88,99
O=C1C2C3CC4C5C3C1C5C1(OCCO1)C42 (stereo not given),-38,102,90,.
CN1C(=O)C2C=CC=CC2NC1=S (stereo not given),28,100,89,.
O=C(O)c1ccccc1C(O)c1ccccc1 (stereo not given),-2,102,96,.
Cc1[nH]c2ccccc2c1C(=O)CSc1nc2cc(C(=O)NC(C)C)ccc2c(=O)n1-c1cccc(F)c1,-12,.,.,99
CCOC(=O)c1sc(N2C(=O)c3ccccc3C2=O)c(C#N)c1C,-5,105,108,108
COc1ccc(NC(=O)c2ccc(N3CCOCC3)nc2)cc1,3,95,109,98
CC(C)COC(=O)CNc1n[nH]c(=S)[nH]c1=O,-36,88,91,103

Part of the list above, showing only Sa growth 42C second temp and Sa growth 42C:
| canonical_smiles | Sa growth 42C second temp | Sa growth 42C |
| --- | --- | --- |
| O=C1C2C3CC4C5C3C1C5C1(OCCO1)C42 (stereo not given) | 90 | 102 |
| CN1C(=O)C2C=CC=CC2NC1=S (stereo not given) | 89 | 100 |

Following part
Structure,HCMV NEC inh,Sa growth 42C,Sa growth 42C second temp,GIV Gai3 FP
CCOC(=O)C[N+](C)(C)Cc1ccccc1,.,104,93,104
CCN1CCCC1CNC(=O)c1sc2nc3n(c(=O)c2c1C)CCCCC3 (stereo not given),-26,96,83,108
Cc1cc(=O)n(Cc2cccc(F)c2)c2c1c(C)nn2-c1cccc(F)c1,.,101,104,109
N#CC(C(N)=S)=C1CCCC1,.,82,51,104
Cc1c(Cl)cccc1N1C(=O)CC(Sc2nnnn2-c2ccccc2)C1=O (stereo not given),5,22,0,.
CN(Cc1ccccc1)C(=O)COC(=O)c1cncc(Br)c1,-9,103,86,.
CCC1COC(c2cccs2)=N1 (stereo not given),6,101,89,106
CN(C)c1ccc(C2N(Cc3ccccc3)CCC3CCCCN32)cc1 (stereo not given),-15,88,74,106
CCS(=O)(=O)c1ccc2c(c1)N(CC(=O)O)C(=O)CO2,-19,.,.,98
O=S(=O)(c1cccc(S(=O)(=O)N2CCCCC2)c1)c1cccc(S(=O)(=O)N2CCCCC2)c1,9,104,97,107
COc1ccc(CNC(=O)c2cccc(-n3nnc4cccnc43)c2)cc1,-31,.,.,119
CCOC(=O)c1cc(-c2ccc(C)cc2)n(CC(=O)NCC2COc3ccccc3O2)c1C (stereo not given),-2,113,74,107&101
Cc1c(-c2ccc(Cl)cc2)c(=O)oc2c(CN3CCN(CCO)CC3)c(O)ccc12,.,80,92,105
Cc1ccc(-c2nn(-c3ccccc3)cc2CN(Cc2ccccc2)C(=O)c2ccco2)o1,-10,142,75,107
COc1ccc(C(C#N)N2CCC(c3ccccc3)=N2)cc1 (stereo not given),0,98,96,.
COc1ccc(/C=C2\Oc3ccccc3N(CC(=O)N3CCOCC3)C2=O)cc1,.,78,92,97
Cc1ccc(C2=NN3C(C2)c2cc(Br)ccc2OC3c2ccc(C(C)(C)C)cc2)cc1 (stereo not given),-2,.,.,99
COc1cccc(NC(=O)N(Cc2nc3ccccc3c(=O)[nH]2)C2CCCCC2)c1,0,94,63,96
COc1ccc(C2=NN(CC(=O)Nc3cc(C)ccc3C)C(=O)CC2)cc1,.,118,93,111
